# Marburg entry inh = blocks Marburg virus binding to or entry into cells | Marburg virus pseudotyped entry inhibition, cell reporter; control for the full effect not named in the record; about a third of the inactives were read at about 46 µM | Potency, µM (top dose mostly 37.8 µM), inactives show at the highest dose activity change, negative = inhibition, actives largely listed as inhibitors | actives 1.8% (n = 300,000) | AID 540276; active = well fitted inhibition curve with a large enough effect; inconclusive = small, poorly fitted or top-dose-only effect, or effect the other way; inactive = flat fitted curve, though single readings scatter; tested in HEK293 cells; about a fifth of its hits are not listed in these tables; note: % is set by controls: 0 for no effect and ±100 for the full control effect; luciferase read-out
# SARS PLP yeast = blocks SARS-CoV papain-like protease in a yeast assay; Potency, µM (doses to about 32.9 µM), for the others: top-dose activity, positive = growth rescue; actives 0.19% (n = 330,000); S. cerevisiae expressing SARS-CoV PLpro, growth rescue; control for the full effect not named in the record; note: 0% is about no effect; nearly all actives have a fitted effect of over 55% in size; growth read by luminescence after 48 h
# StopGo reporter = FMDV 2A StopGo reporter, luciferase signal. human cells with a luciferase reporter of 2A StopGo recoding; control for the full effect not named in the record. Potency, µM (doses to about 57.9 µM), for the others: at the highest dose signal change, negative = less light. actives 1.2% (n = 410,000). AID 1159524; active = well fitted falling curve with a large enough effect; inconclusive = small, poorly fitted or top-dose-only effect; inactive = no such curve, though single readings can be large or run the other way; tested in HEK293T cells; note: % is set by controls: 0 for no effect and ±100 for the full control effect; nearly all actives have a fitted effect of over 45% in size; luciferase light after 4 h
# NS1 inh = influenza NS1 inhibition | actives 0.4% (n = 270,000) | AID 2326 | S. cerevisiae slowed by influenza A NS1, growth recovery by OD600 | Potency, µM (series often up to 46.1 µM), without a hit: at the highest dose activity, positive = more growth; note: actives are rising curves; nearly all actives have a fitted effect of over 50% in size
#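 S. cerevisiae expressing influenza A NS1, grown in glucose, washed, then diluted 1:100 into pH 6.0 -URA galactose medium with 23 nl compound. Growth recovery read as OD600; NS1-free strain serves as control.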
# Cruzain inh Det = cruzain (T. cruzi) inhibition with detergent; Potency, µM, for inactives: max response, negative = inhibition, actives largely listed as inhibitors; purified cruzain, Z-FR-AMC fluorescence, 0.01% Triton; actives 0.43% (n = 200,000); P25779; active = well fitted curve in the direction sought with a large enough effect; inconclusive = small, poorly fitted or top-dose-only effect, or another doubt; inactive = no such curve, though single readings can be large; an effect the other way counts as inactive or inconclusive;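 note: plate controls were neutral wells for no effect and buffer without enzyme for full effect; nearly all actives have a fitted effect of over 40% in size; top concentration of the series not given in the record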
# Target sequence (P25779 123-467 limits assumed): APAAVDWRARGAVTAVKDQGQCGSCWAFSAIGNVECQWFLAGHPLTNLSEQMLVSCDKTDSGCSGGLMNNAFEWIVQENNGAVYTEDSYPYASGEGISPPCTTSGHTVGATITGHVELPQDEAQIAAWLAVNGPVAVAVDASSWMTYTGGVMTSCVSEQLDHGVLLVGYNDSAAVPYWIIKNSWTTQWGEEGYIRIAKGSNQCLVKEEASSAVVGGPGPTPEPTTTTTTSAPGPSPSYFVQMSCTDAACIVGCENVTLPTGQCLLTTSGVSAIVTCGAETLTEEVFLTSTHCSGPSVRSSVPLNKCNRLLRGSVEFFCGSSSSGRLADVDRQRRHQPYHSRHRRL
#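 15 min RT preincubation of 1.5 nM cruzain with compound, then 2 uM Z-FR-AMC added; kinetic AMC fluorescence, 60 s delta. Triton X-100 0.01%, pH 5.5.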
# RE007 growth inh = less growth of the S. pombe RE007 Vpr strain | S. pombe RE007 Vpr strain, BacTiter-Glo ATP luminescence, 24 h; control for the full effect not named in the record | Potency, µM (highest dose often 92.2 µM), without a hit: top-dose activity change, negative = less growth | actives 0.21% (n = 360,000); active = well fitted falling curve with a large enough effect; inconclusive = small, poorly fitted or top-dose-only effect; inactive = no such curve, though single readings can be large or run the other way;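 note: % is set by controls: 0 for no effect and ±100 for the full control effect; nearly all actives have a fitted effect of over 50% in size; the assay follows cell death caused by Vpr and the record does not say whether a fall means rescue or toxicity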
#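 Fission yeast RE007 carrying one integrated HIV-1 vpr copy, seeded at OD 0.01 in PMG+AL medium with 23 nL pinned compound. Grown 24 h at 30 degrees; viability read by BacTiter-Glo luminescence after 5 min.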
# Cruzain noTriton = cruzain (T. cruzi) inhibition without detergent; P25779; purified cruzain, Z-FR-AMC fluorescence, no detergent; Potency, µM, inactives show max response, negative = inhibition, actives largely listed as inhibitors; actives 2.3% (n = 200,000); active = well fitted curve in the direction sought with a large enough effect; inconclusive = small, poorly fitted or top-dose-only effect, or another doubt; inactive = no such curve, though single readings can be large; an effect the other way counts as inactive or inconclusive;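 note: plate controls were enzyme without inhibitor for no effect and buffer without enzyme for full effect; nearly all actives have a fitted effect of over 40% in size; top concentration of the series not given in the record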
#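 Purified cruzain at 1.5 nM, pre-incubated 15 min with compound at room temperature in 100 mM sodium acetate pH 5.5, 5 mM DTT, 0.00005% Triton X-100. Reaction started with 2 uM Z-FR-AMC; AMC fluorescence increase over 60 s gives rate.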
# Lassa entry inh = Lassa virus entry inhibition. Lassa virus pseudotype entry inhibition, cell reporter; control for the full effect not named in the record. Potency, µM (doses to about 37.9 µM), without a hit: at the top dose activity change, negative = inhibition, hits mostly inhibitors. actives 1.2% (n = 300,000). AID 540256; active means well fitted inhibition curve with a large enough effect; inconclusive means small, poorly fitted or top-dose-only effect, or effect the other way; inactive means flat fitted curve, though single readings scatter; tested in HEK293 cells; note: % is set by controls: 0 for no effect and ±100 for the full control effect; nearly all actives have a fitted effect of over 50% in size; luciferase read-out
# An asterisk follows results filed as active; ? = inconclusive; · = no result given; & = joins results of further samples; [ ] = another dose, or the depositor's remark. Unless noted, calls come from the whole dose curve; as a rule, active means well fitted rising curve with a large enough effect; inconclusive means small, poorly fitted or top-dose-only effect; inactive means no such curve, though single readings can be large or run the other way. Potency is the fitted concentration of half-maximal effect.
SMILES,Marburg entry inh,SARS PLP yeast,StopGo reporter,NS1 inh,Cruzain inh Det,RE007 growth inh,Cruzain noTriton,Lassa entry inh
CC(=O)c1ccc(OC(C)C(=O)OCC(=O)NCCc2ccccc2)cc1 (stereo not drawn),-15%,-1%,-14%,·,·,15%,·,-3%
O=C(O)CCN1CCOCC1,1%,9%,-8%,-4%,5.3%,?,-2%,13%
O=C(O)c1cccnc1C(=O)c1ccccc1,1%[46.1 µM],·,-8%,·,·,4%,·,-7%
CCn1nc(NC(=O)c2ccco2)c2cc3ccccc3nc21,-3%&-3%,-10%,1%,-19%,12%,2%,5%,?
CN(CC(=O)Nc1ccccc1Cl)C(=O)COC(=O)Cc1c(F)cccc1Cl,·,-1%,-8%,10%,·,-13%,·,·
CS(=O)(=O)c1ccc(Cl)c(S(=O)(=O)NCc2ccccc2)c1,15%,-2%,·,10%,4.4%,4%,-10%,11%
O=C(Cn1ccn(-c2ccc(F)c(F)c2)c(=O)c1=O)Nc1ccccc1F,·,·,-15%,·,0.0%,·,-23%,9%[46.1 µM]
CCOC(=O)c1cc(-c2ccccc2)sc1NC(=O)C(C)OC(=O)c1cccc(S(=O)(=O)N(C)C)c1 (stereo not drawn),-3%,0%,-9%,13%,-4.3%,-3%,-17%,0%
CCC(=O)N1CCc2cc(S(=O)(=O)CCC(=O)Nc3nc(C)cs3)ccc21,-25%,-12%,4%,0%,-2.9%,6%,10%,-1%
CS(=O)(=O)N(CC(=O)N1CCCC1)Cc1ccc(Cl)cc1,-38%,19%,0%,-5%,-2.4%,-3%,2%,0%
COc1ccc(C2C(C(=O)Nc3cccnc3)=C(C)Nc3nc(-c4ccc(OC)c(OC)c4)nn32)cc1 (stereo not drawn),-27%[46.1 µM],·,8%,·,-5.9%,·,?,24%[46.1 µM]
Cc1ccc(NC(=S)N(CCN(C)C)C(C)c2ccco2)c(C)c1 (stereo not drawn),·,0%,19%,-5%,·,-16%,·,·
C=CCOc1cccc(CNc2ccc3[nH]c(=O)[nH]c3c2)c1,·,-1%,?,4%,·,1%,·,?
O=C(Nc1ccc2ccccc2c1)c1cccc2ccccc12,?,·,22%,·,·,-12%,·,4%[46.1 µM]
CCN(CC)C(=O)CSc1nc(C)cc(C)c1C#N,1%[46.1 µM],-2%,-14%,·,·,32%,·,8%[46.1 µM]
C=CCN=c1scc(-c2ccccc2)n1/N=C/c1ccccn1,2.8µM*,-60%,10%&-5%,-31%,-12%,?,19%,·
Cc1cccc(NC(=O)c2oc(=O)c3ccccc3c2-c2ccccc2)c1C,?,18%,-25%,2%,-8.4%,2%,1%,?
CC(=O)c1cccc(Nc2nc(=O)c3cccnc3s2)c1,-13%,2%,39%[activator],-2%,2.4%,8%,1%,1%
COc1ccccc1C(=O)Nc1ccc(CN2CCCCC2)cc1,5%,1%,10%,-5%,2.2%,5%,-6%,2%
O=C(Nc1ccccc1N1CCN(C(=O)c2ccc(Cl)cc2)CC1)c1ccc(Br)cc1,?,-29%,-3%,14%,0.0%,14%,?,-22%

# In another format: entries from further up.
Compound | Marburg entry inh | SARS PLP yeast | StopGo reporter | NS1 inh | Cruzain inh Det | RE007 growth inh | Cruzain noTriton | Lassa entry inh
CCOC(=O)c1cc(-c2ccccc2)sc1NC(=O)C(C)OC(=O)c1cccc(S(=O)(=O)N(C)C)c1 (stereo not drawn) | -3% | 0% | -9% | 13% | -4.3% | -3% | -17% | 0%
CCC(=O)N1CCc2cc(S(=O)(=O)CCC(=O)Nc3nc(C)cs3)ccc21 | -25% | -12% | 4% | 0% | -2.9% | 6% | 10% | -1%

# The results go on.
SMILES,Marburg entry inh,SARS PLP yeast,StopGo reporter,NS1 inh,Cruzain inh Det,RE007 growth inh,Cruzain noTriton,Lassa entry inh
COc1cc2c(cc1NC(=O)C(C)N1CCN(S(=O)(=O)c3ccc(C)c(C)c3)CC1)oc1ccccc12 (stereo not drawn),10%,-1%,65%[activator],-5%,1.8%,-5%,7.9µM*,-8%
Cc1ccnc2nc(C(=O)OCC(=O)NC(=O)NCc3ccco3)nn12,1%,3%,1%,·,·,-15%,·,-8%
COc1ccc2c3c([nH]c2c1)C(C)N(C(C)=O)CC3 (stereo not drawn),·,0%,10%,-5%,·,8%,·,·
CC(C)(C)NC(=O)CCn1nc(-c2ccc(Cl)cc2)c2ccccc2c1=O,1%,-2%,-22%,-1%,·,21%,·,·
CC1CC(OC(=O)c2ccccc2C(=O)c2ccc(Cl)cc2)C(=O)O1 (stereo not drawn),?,0%,49%[activator],·,·,13%,·,-7%
CCc1ccc(NC(=O)Cn2c(=O)n(Cc3nc(-c4ccccc4)no3)c(=O)c3cc4c(cc32)OCO4)cc1,·,·,-1%,·,-2.4%,·,16µM*,7%[46.1 µM]
COc1ccc(Cl)cc1-c1nc(SCC(=O)N(C)C2CCS(=O)(=O)C2)n[nH]1 (stereo not drawn),-16%[46.1 µM],0%,1%,·,·,8%,·,7%[46.1 µM]
Cc1cc(C(F)F)n2nc(C(=O)Nc3c(C)cccc3C)nc2n1,-23%[46.1 µM],·,-5%,·,-1.2%,·,-4%,1%[46.1 µM]
COC(=O)C1=C(O)C(C(=O)OC)C(c2ccc(C)cc2)C(C#N)(C#N)C1c1ccc(C)cc1 (stereo not drawn),?,22%,-18%,12%,-4.8%,9%,?,?
N#Cc1c(-c2ccc3c(c2)OCO3)cc[nH]c1=O,·,3%,9%,9%,·,-4%,·,·
Nc1nonc1-n1nnc(C(=O)N/N=C/c2cccs2)c1CSc1ccccc1,·,-5%,6%,-4%,·,0%,·,·
CCCSc1nsc(NC(=O)Nc2ccc(F)cc2F)n1,·,-3%,7%,-56%,·,4%,·,·
COc1ccccc1N1CCN(Cc2cc(=O)c(OCC(=O)NC(C)C)co2)CC1,·,-5%,-9%,-2%,·,-2%,·,·
O=C(Nc1sc2c(c1C(=O)NCC1CCCO1)CCC2)c1cc(=O)c2ccccc2o1 (stereo not drawn),?,·,0%,·,-2.0%,·,-4%,?
CCCCC(c1nnnn1C(C)C)N1CCN(C(=O)c2ccco2)CC1 (stereo not drawn),11%[46.1 µM],7%,2%,2%,·,17%,·,-11%
COc1cc(/C=C/C(=O)O)cc(S(=O)(=O)NCc2ccc3c(c2)OCO3)c1OC,21%[46.1 µM],-1%,26%,1%,·,33%,·,8%
CN(C[C@H](Cc1ccccc1)N(CCN(CCc1ccccc1)N=O)N=O)N=O,·,0%,-10%,-5%,·,-1%,·,·
Cc1ccc(/C=C/C(=O)NCc2cccs2)cc1,-2%,-34%,44%[activator],-5%,-3.4%,-5%,-1%,2µM*
O=C(COc1ccc2ccccc2c1)NNC(=O)[C@@H]1CCCC[C@@H]1C(=O)O,5%,0%,16%,1%,4.9%,40%,-1%,-5%
CCSc1nnc(NC(=O)C2CCN(S(=O)(=O)c3cc(C(F)(F)F)ccc3Cl)CC2)s1,-4%,7%,?,16%,-8.3%,3%,7%,0%

# 4 compounds already listed, sorted by count of non-hydrogen atoms, falling.
SMILES,Marburg entry inh,SARS PLP yeast,StopGo reporter,NS1 inh,Cruzain inh Det,RE007 growth inh,Cruzain noTriton,Lassa entry inh
COC(=O)C1=C(O)C(C(=O)OC)C(c2ccc(C)cc2)C(C#N)(C#N)C1c1ccc(C)cc1 (stereo not drawn),?,22%,-18%,12%,-4.8%,9%,?,?
CC(C)(C)NC(=O)CCn1nc(-c2ccc(Cl)cc2)c2ccccc2c1=O,1%,-2%,-22%,-1%,·,21%,·,·
CC1CC(OC(=O)c2ccccc2C(=O)c2ccc(Cl)cc2)C(=O)O1 (stereo not drawn),?,0%,49%[activator],·,·,13%,·,-7%
COc1ccc2c3c([nH]c2c1)C(C)N(C(C)=O)CC3 (stereo not drawn),·,0%,10%,-5%,·,8%,·,·

# Next records.
SMILES,Marburg entry inh,SARS PLP yeast,StopGo reporter,NS1 inh,Cruzain inh Det,RE007 growth inh,Cruzain noTriton,Lassa entry inh
COc1cccc(NC(=O)Nc2nnc(-c3ccccc3SCc3ccccc3)s2)c1,0%[46.1 µM],10%,-19%,4%,5.2%,-3%,3.2µM*,?
Cc1ccc2c(c1)C(=O)C(=O)N2CCCOc1ccccc1,·,-3%,3%,-8%,·,-4%,·,·
COc1ccc(NC(=O)Cn2c(=O)c(C)nc3ccccc32)cc1Cl,17%[46.1 µM],0%,-16%,0%,·,-2%,·,21%
CC(=O)[C@]1(O)Cc2c(O)c3c(c(O)c2[C@@H](O[C@H]2C[C@H](N)[C@H](O)[C@H](C)O2)C1)C(=O)c1c(O)cccc1C3=O,0.056µM*,·,·,·,-8.4%,·,-14%,0.16µM*
COc1cc2[nH]cc(C(=O)NCc3cccs3)c(=O)c2cc1OC,18%,·,18%,·,·,1%,·,11%[14.3 µM]
O=C(c1nc2nc(-c3ccccc3)cc(C(F)(F)F)n2n1)N1CCOCC1,16%[46.1 µM],0%,8%,-1%,-7.4%,-1%,0%,-17%
CCCNS(=O)(=O)c1ccc(OCC(=O)N2CCN(Cc3ccccc3)CC2)cc1,?,5%,0%,-5%,1.2%,-5%,7%,18µM*
COCCN(C(=O)COC(=O)c1cccnc1Cl)c1c(N)n(Cc2ccccc2)c(=O)[nH]c1=O,0%,5%,12%,·,·,-25%,·,16%

# From PubChem

# Random draw from the library (roughly 4.8% active in at least one column).
